CtBP-E1A blk = blocks the CtBP interaction with E1A; AlphaScreen GST-E1A/His-CtBP binding, 1536-well; stronger effect = lower value; control for the full effect not named in the record; activity change, % (no concentration beside the values); actives 0.49% (n = 340,000); in the data active means activity change below about -65%; inconclusive means about -30% to -65%; inactive means above about -30%; further: on the % scale 0 is the no-effect control and ±100 the full control effect; compound concentration not given in the record
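In 5 uL wells, 23 nL compound meets equimolar GST-E1A and His-CtBP (5X stock 125 nM each) for 2 h, 37 °C. Beads (5X, 50 ug/mL) then 1 h, 37 °C, dark.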
Six1-Eya2 inh = blocks human Six1 binding to Eya2. Q15475+O00167. AlphaScreen GST-Six1/His-Eya2 binding, biochemical; stronger effect = lower value; control for the full effect not named in the record. activity change, % (test concentration not listed). actives 0.56% (n = 360,000); in the data active = activity change below about -65%; inconclusive = about -30% to -65%; inactive = above about -30%; further: on the % scale 0 is the no-effect control and ±100 the full control effect; compound concentration not given in the record
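Six1/Eya2 binding was read as AlphaScreen signal after compounds were pinned into GST-Six1 plus His-tagged Eya2 (5X stock 250/500 nM) in pH 8.0 Tris/NaCl/TCEP buffer, beads added, then incubated 1 h, 37 C, dark.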
D2 agonist = agonists of human D2 dopamine receptor (beta-arrestin); P14416; DiscoveRx PathHunter D2 beta-arrestin, luminescence, 90 min; 100% = 57 uM dopamine signal; activation, % (no concentration beside the values); actives 0.084% (n = 360,000); in the data active = activation above about 40%; inconclusive = about 15% to 40%; inactive = below about 15%; further: compound concentration not given in the record; the text of the record calls up to 30% inactive
Target sequence (P14416 whole entry, looked up): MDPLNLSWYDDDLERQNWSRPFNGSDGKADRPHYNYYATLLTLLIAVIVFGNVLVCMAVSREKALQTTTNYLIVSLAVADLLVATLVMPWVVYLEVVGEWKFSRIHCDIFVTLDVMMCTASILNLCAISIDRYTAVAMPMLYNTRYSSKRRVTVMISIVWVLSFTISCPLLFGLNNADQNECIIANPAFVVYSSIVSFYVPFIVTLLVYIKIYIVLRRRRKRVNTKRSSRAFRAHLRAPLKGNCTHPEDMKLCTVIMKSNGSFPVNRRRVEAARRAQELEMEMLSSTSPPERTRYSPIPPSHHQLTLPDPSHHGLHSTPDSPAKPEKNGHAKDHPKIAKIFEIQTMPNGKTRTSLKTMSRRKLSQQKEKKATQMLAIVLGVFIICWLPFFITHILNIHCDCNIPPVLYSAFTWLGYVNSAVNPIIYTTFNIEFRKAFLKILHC
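DiscoveRx PathHunter D2 beta-arrestin cells (2,100/well) attached overnight, then compound-stimulated 90 min at 37 C in HBSS/10 mM HEPES/0.1% Tween-20 buffer; beta-galactosidase complementation read by luminescence after 1 h at ambient temperature. Dopamine 57 uM final (EC100) as control.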
PINK1 modulator = modulators of PINK1 expression; PINK1 immunofluorescence, high-content cytometry, 24 h; Potency, µM (titrated, usually from 76.6 µM), for inactives: at the top dose activation (PINK1 increase), most hits filed as activators; actives 0.2% (n = 410,000); active = well fitted activation curve with a large enough effect; inconclusive = small, poorly fitted or top-dose-only effect; inactive = flat fitted curve, though single readings scatter; cell line not stated here;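 further: potency means the concentration at half of the fitted maximal effect; % of control where 0% means no effect; nearly all actives have a fitted effect of over 65% in size; a mitochondrial uncoupler was the plate control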
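A stable cell line was treated with compounds at 5 concentrations for 24 hours, with CCCP as control. PINK1 levels and mitochondrial localization were measured by immunofluorescence with mitochondrial, cell and nuclear markers after fixation, read by laser-scanning cytometry.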
TRPML1 agonist = human mucolipin-1 channel agonism | Q9GZU1 | TRPML1-expressing cells, Ca2+ dye fluorescence, FDSS; host cell line not named in the record; reference of the full effect not given here | activation, % (concentration not given with the values) | actives 0.12% (n = 410,000); in the data active = activation above about 50%; inconclusive = about 30% to 50%; inactive = below about 30%; further: 0% is about no effect; the text of the record puts the active cut at 80%
Target sequence (Q9GZU1 whole entry, looked up): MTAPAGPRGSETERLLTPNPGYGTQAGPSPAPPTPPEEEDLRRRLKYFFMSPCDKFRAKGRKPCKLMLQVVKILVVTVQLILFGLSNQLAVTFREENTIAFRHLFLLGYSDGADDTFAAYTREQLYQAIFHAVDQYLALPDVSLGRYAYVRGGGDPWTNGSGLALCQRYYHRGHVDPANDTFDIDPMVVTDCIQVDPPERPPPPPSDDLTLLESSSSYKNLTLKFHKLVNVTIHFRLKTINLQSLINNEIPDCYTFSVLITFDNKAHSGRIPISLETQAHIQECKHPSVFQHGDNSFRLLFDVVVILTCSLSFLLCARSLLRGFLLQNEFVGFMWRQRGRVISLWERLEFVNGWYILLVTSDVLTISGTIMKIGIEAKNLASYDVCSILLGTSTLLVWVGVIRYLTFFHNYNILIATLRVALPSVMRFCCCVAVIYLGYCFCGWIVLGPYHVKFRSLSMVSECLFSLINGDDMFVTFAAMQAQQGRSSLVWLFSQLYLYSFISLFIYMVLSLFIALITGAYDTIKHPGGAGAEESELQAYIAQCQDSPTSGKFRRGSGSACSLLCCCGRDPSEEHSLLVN
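Agonist activity was taken from a 110 s kinetic Ca2+ dye read on the FDSS after pinning compounds onto TRPML1-DL cells. The cells were seeded at 1,500/well with Tet inducer, incubated about 16 h, then dye-loaded at room temperature.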
TRPML1 blocker = human mucolipin-1 channel inhibition; Q9GZU1; TRPML1-inducible cells, Ca2+ dye fluorescence, FDSS; stronger effect = lower value; inhibition of EC80 agonist-evoked calcium signal; activity change, negative = inhibition, % (no concentration beside the values); actives 0.02% (n = 390,000); in the data active means activity change below about -50%; inconclusive means about -30% to -50%; inactive means above about -30%;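 further: stimulus is agonist 54-4 at its EC80 concentration; on the % scale 0 is the no-effect control and ±100 the full control effect; compound concentration not given in the record; the text of the record puts the active cut at -80%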
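Tet-induced TRPML1-DL cells loaded with Ca8 no-wash calcium dye were read kinetically on FDSS. Compound addition was followed by EC80 agonist 54-4 (4 uM final); inhibition was read over 110 s.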
Numbers without * were called inactive; [ ] = remark or other dose.

Screening CCOc1ncccc1C(=O)Nc1ccc2c(C)cc(=O)oc2c1 returned CtBP-E1A blk 4, Six1-Eya2 inh 5, D2 agonist 0.6, PINK1 modulator -1.1%, TRPML1 agonist 2.2 and TRPML1 blocker -3.
O=C(NCc1ccco1)c1cc2nc(-c3ccc4c(c3)OCO4)cc(C(F)(F)F)n2n1 was read as CtBP-E1A blk -28, Six1-Eya2 inh -14, D2 agonist 0.8, PINK1 modulator 6.6%, TRPML1 agonist 2.4 and TRPML1 blocker -7.
`CN(C)c1nc(N(C)C)nc(N(C#N)Cc2ccc(Cl)cc2)n1` gave CtBP-E1A blk 11, Six1-Eya2 inh 8, D2 agonist -1.1 and PINK1 modulator 0.7%.
O=C1/C(=C\c2cc([N+](=O)[O-])ccc2O)SC(=S)N1Cc1ccc(Cl)cc1 was read as Six1-Eya2 inh -18, D2 agonist -7.3, PINK1 modulator 14µM*, TRPML1 agonist inconclusive and TRPML1 blocker -6.
`C=CCn1c(SCC(=O)N2c3ccccc3Sc3ccccc32)nnc1-c1ccco1` gave CtBP-E1A blk -12, Six1-Eya2 inh -4, D2 agonist 2.3, PINK1 modulator -0.2%, TRPML1 agonist 2.2 and TRPML1 blocker -3.
For S=C(NCCc1ccccn1)Nc1ccc(Cl)c(Cl)c1 the results were CtBP-E1A blk 10, Six1-Eya2 inh 8, D2 agonist 2.0, PINK1 modulator 0.5%, TRPML1 agonist 0.0 and TRPML1 blocker -13.
`Cc1cccc(-c2nc3scc(CCNS(=O)(=O)c4ccc5c(c4)OCCO5)n3n2)c1` gave PINK1 modulator 0.8%, TRPML1 agonist 4.8 and TRPML1 blocker 6.
`O=C(OCc1cc(=O)n2nc(C3CC3)sc2n1)c1cccc(NC(=O)c2ccccc2Cl)c1` gave PINK1 modulator -0.8%, TRPML1 agonist -0.4 and TRPML1 blocker 6.
CC1CCCCN1CC(O)COc1ccc(OCC(O)CN2CCCCC2C)cc1 (stereo not drawn) was read as CtBP-E1A blk 14, Six1-Eya2 inh 5, D2 agonist 2.8, PINK1 modulator 1.2%, TRPML1 agonist 0.0 and TRPML1 blocker -3.
Screening CN(C)S(=O)(=O)c1ccc(NC(=O)COC(=O)c2ccccn2)cc1 returned CtBP-E1A blk -13, Six1-Eya2 inh -8, D2 agonist 1.8, PINK1 modulator -1.2%, TRPML1 agonist 0.7 and TRPML1 blocker 8.
CCc1cc2cc(C)ccc2nc1SCC(=O)N1CC(=O)Nc2ccccc21 was read as CtBP-E1A blk -8, Six1-Eya2 inh -26, D2 agonist 1.4, PINK1 modulator -0.6%, TRPML1 agonist 1.8 and TRPML1 blocker 11.
For Clc1cccc(Cl)c1-c1nnc2ccc(N3CCOCC3)nn12 the results were CtBP-E1A blk -13, Six1-Eya2 inh -1, D2 agonist -2.8, PINK1 modulator -1.0%[38.3 µM], TRPML1 agonist 0.4 and TRPML1 blocker -13.

The list goes on (3 carried over from the part before).
Screening CN(C)S(=O)(=O)c1ccc(NC(=O)COC(=O)c2ccccn2)cc1 returned CtBP-E1A blk -13, Six1-Eya2 inh -8, D2 agonist 1.8, PINK1 modulator -1.2%, TRPML1 agonist 0.7 and TRPML1 blocker 8.
CCc1cc2cc(C)ccc2nc1SCC(=O)N1CC(=O)Nc2ccccc21 was read as CtBP-E1A blk -8, Six1-Eya2 inh -26, D2 agonist 1.4, PINK1 modulator -0.6%, TRPML1 agonist 1.8 and TRPML1 blocker 11.
For Clc1cccc(Cl)c1-c1nnc2ccc(N3CCOCC3)nn12 the results were CtBP-E1A blk -13, Six1-Eya2 inh -1, D2 agonist -2.8, PINK1 modulator -1.0%[38.3 µM], TRPML1 agonist 0.4 and TRPML1 blocker -13.
COc1ccc(-c2c([C@H]3[C@@H]4C=CCC[C@@]4(C)C(=O)N3Cc3ccccc3)ccc3ccccc23)cc1OC was read as CtBP-E1A blk -16, Six1-Eya2 inh -23, D2 agonist -3.4, PINK1 modulator 11%, TRPML1 agonist 3.4 and TRPML1 blocker -2.
NC(=O)c1ccc(NC(=O)COC(=O)CC(NC(=O)c2ccccc2Cl)c2ccccc2)cc1 (stereo not drawn) was read as CtBP-E1A blk -16, Six1-Eya2 inh -9, D2 agonist 2.8, PINK1 modulator 0.0%, TRPML1 agonist -0.2 and TRPML1 blocker 0.
`Cc1cccc(NS(=O)(=O)c2ccc3c(c2)NC(=O)CO3)c1C` gave Six1-Eya2 inh 10, D2 agonist -1.5, PINK1 modulator 0.6%, TRPML1 agonist 0.2 and TRPML1 blocker -5.
For CC(C)C(N)c1csc(NC(=O)Nc2ccc(OC(F)(F)F)cc2)n1 (stereo not drawn) the results were CtBP-E1A blk 2, Six1-Eya2 inh -3, D2 agonist 6.3, PINK1 modulator -1.3% and TRPML1 agonist 0.0.
`CCCNC(=O)C1(C)CCCN(C(=O)c2ccc(F)c(Cl)c2)C1` (stereo not drawn) gave CtBP-E1A blk 3, Six1-Eya2 inh -1, D2 agonist 0.4, PINK1 modulator 1.9% and TRPML1 agonist -0.8.
O=C(NCc1cccnc1)C(=O)Nc1ccc2c(c1)OCO2 was read as CtBP-E1A blk 13, Six1-Eya2 inh -18, D2 agonist 0.0, PINK1 modulator 0.8%, TRPML1 agonist -0.2 and TRPML1 blocker -5.
`CNC(=O)C1CCC(=O)N1Cc1ccc(C)cc1` (stereo not drawn) gave CtBP-E1A blk 1, Six1-Eya2 inh -4, D2 agonist -2.6, PINK1 modulator -0.2%, TRPML1 agonist -1.0 and TRPML1 blocker 10.
For CCOP(=O)(OCC)C(Nc1cccc(C(F)(F)F)c1)c1ccc(F)cc1 (stereo not drawn) the results were CtBP-E1A blk 8, Six1-Eya2 inh 0, D2 agonist 0.9, PINK1 modulator 3.5%, TRPML1 agonist 3.8 and TRPML1 blocker -4.
`COc1ccc(CN2CCN(CC=C(C)C)C(CCO)C2)cc1Cn1cccn1` (stereo not drawn) gave CtBP-E1A blk -3, Six1-Eya2 inh 3, D2 agonist -3.0, PINK1 modulator 1.1%, TRPML1 agonist 0.7 and TRPML1 blocker 12.
Cc1ccc(OCC(=O)NNC(=O)CCc2ccccc2)cc1 was read as CtBP-E1A blk 4, Six1-Eya2 inh 2, D2 agonist -3.5, PINK1 modulator 12%[38.3 µM], TRPML1 agonist 1.1 and TRPML1 blocker inconclusive.
`O=C(CCN=C1NS(=O)(=O)c2ccccc21)OCC(=O)c1ccccc1Cl` gave CtBP-E1A blk -11, Six1-Eya2 inh 5, D2 agonist -3.3, PINK1 modulator -6.2%, TRPML1 agonist 0.6 and TRPML1 blocker 3.
`Cc1cccc(S(=O)(=O)NC(Cc2c[nH]c3ccccc23)C(=O)O)c1` (stereo not drawn) gave CtBP-E1A blk -16, Six1-Eya2 inh -4, D2 agonist -2.7, PINK1 modulator -1.1%, TRPML1 agonist -1.0 and TRPML1 blocker -13.
Screening Cn1c(SCC(=O)NCc2ccco2)nnc1-c1ccc(S(=O)(=O)N2CCOCC2)cc1 returned CtBP-E1A blk 2, Six1-Eya2 inh -3, D2 agonist 1.6, PINK1 modulator 2.7%[38.3 µM], TRPML1 agonist 4.8 and TRPML1 blocker -2.
For CC(=O)c1cccc(NC(=O)C(C)OC(=O)c2ccc(-n3cnnn3)cc2)c1 (stereo not drawn) the results were CtBP-E1A blk 2, Six1-Eya2 inh -1, D2 agonist -1.1, PINK1 modulator 2.6%, TRPML1 agonist -0.9 and TRPML1 blocker 12.
`CSCC[C@H](NC(=O)C1=NN(c2c(F)c(F)cc(F)c2F)C(=O)CC1)c1nc2ccccc2[nH]1` gave CtBP-E1A blk -1, Six1-Eya2 inh 1, D2 agonist -0.4 and PINK1 modulator 2.2%.
`O=C(c1ccc(N2CCOCC2)c([N+](=O)[O-])c1)N1CCN(c2ccccc2F)CC1` gave CtBP-E1A blk -4, Six1-Eya2 inh 1, D2 agonist -1.8, PINK1 modulator 2.4%, TRPML1 agonist -0.1 and TRPML1 blocker -7.
For Cc1ccc(NC(=O)/C(=C\c2cccs2)NC(=O)c2ccccc2)cc1 the results were CtBP-E1A blk -13, Six1-Eya2 inh -6, D2 agonist -9.1, PINK1 modulator -2.7%, TRPML1 agonist -0.3 and TRPML1 blocker 7.
`CCc1ccc(N(CC(=O)NCc2ccc(OC)cc2)C(=O)CCC(=O)Nc2ccccn2)cc1` gave CtBP-E1A blk 28, Six1-Eya2 inh 9, D2 agonist -0.7, PINK1 modulator 3.3%, TRPML1 agonist 0.2 and TRPML1 blocker 3.
`CC1=C(C(=O)OCc2ccccc2)C(c2ccoc2)C(C#N)=C(N)O1` (stereo not drawn) gave CtBP-E1A blk 0, Six1-Eya2 inh 8, D2 agonist -2.5, PINK1 modulator -1.5%, TRPML1 agonist 1.6 and TRPML1 blocker -14.
For Cn1c(SCc2ccccc2)nnc1-c1c[nH]c2ccccc12 the results were CtBP-E1A blk -4, Six1-Eya2 inh 0, D2 agonist -3.6, PINK1 modulator 0.8%, TRPML1 agonist 0.0 and TRPML1 blocker -4.
`CCn1c2ccccc2c2nnc(SCC(=O)c3c(N)n(C)c(=O)n(C)c3=O)nc21` gave Six1-Eya2 inh 0, D2 agonist -2.9, PINK1 modulator -1.6%, TRPML1 agonist 0.3 and TRPML1 blocker 3.
O=C1c2ccccc2CC1Sc1nnc(-c2ccccn2)o1 (stereo not drawn) was read as CtBP-E1A blk -1, Six1-Eya2 inh 7, D2 agonist 3.3, PINK1 modulator 0.0%, TRPML1 agonist 0.2 and TRPML1 blocker 12.
For O=C1c2ccc([N+](=O)[O-])cc2C(=O)N1c1c[nH]c(=O)[nH]c1=O the results were CtBP-E1A blk -5, Six1-Eya2 inh 6, D2 agonist -5.8, PINK1 modulator 0.3%, TRPML1 agonist -0.9 and TRPML1 blocker -3.
For COCCNC(=O)C1CCN(S(=O)(=O)N2CCC3(CC2)OCCO3)CC1 the results were CtBP-E1A blk -19, Six1-Eya2 inh -7, D2 agonist 0.3, PINK1 modulator -1.3%[38.3 µM], TRPML1 agonist -0.1 and TRPML1 blocker 3.
Screening O=c1oc2ccc(C#CC3(O)CCCCC3)cc2cc1-n1cc(C2(O)CCCCC2)nn1 returned CtBP-E1A blk 4, Six1-Eya2 inh 1, D2 agonist -2.1, PINK1 modulator 1.0%, TRPML1 agonist 0.7 and TRPML1 blocker 24.
`Cc1ccc(-c2nnc(SCC(=O)N3CCN(c4ccccc4)CC3)o2)cc1` gave CtBP-E1A blk -2, Six1-Eya2 inh 5, D2 agonist -0.9, PINK1 modulator 1.4%, TRPML1 agonist 0.2 and TRPML1 blocker 51.
For Cn1cnnc1Sc1nc([N+](=O)[O-])nn1C the results were Six1-Eya2 inh 1, D2 agonist 1.6, PINK1 modulator 0.2%, TRPML1 agonist 0.1 and TRPML1 blocker -1.
Screening CCOc1ccc(S(=O)(=O)N(C(C)=O)c2ccc3oc(C)c(C(=O)OC)c3c2)cc1 returned PINK1 modulator 1.6%, TRPML1 agonist 1.6 and TRPML1 blocker 2.

Screening data: PubChem BioAssay, National Center for Advancing Translational Sciences (NCATS)
